Bioassay records (PubChem BioAssay)
D2 agonist: Beta-Arrestin HTS for Positive Allosteric Modulators of the Human D2 Dopamine Receptor: Agonists; 0.084% of 360,000 active; DiscoveRx PathHunter D2 beta-arrestin, luminescence, 90 min; 100% = 57 uM dopamine signal; activation, % (no concentration beside the values); D(2) dopamine receptor (Homo sapiens), P14416; AID 624465, 2012; in the data active = activation above about 40%; inconclusive = about 15% to 40%; inactive = below about 15%; also: compound concentration not given in the record; the text of the record calls up to 30% inactive
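Agonist mode: compounds alone added to overnight-plated D2 PathHunter cells for 90 min at 37 C, with 57 uM final dopamine (EC100) defining full response. Beta-arrestin recruitment detected by chemiluminescent reagent, read after 1 h at ambient temperature.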
TRPV1 potentiator: HTS Assay for Compounds that Act as Potentiators of the Vanilloid Receptor 1 | potentiation, % at 8.33 µM | TRPV1-expressing cells, Fluo-8 calcium influx, capsaicin EC20 potentiation; host cell line not named in the record; control for the full effect not named in the record | AID 540277, 2011 | 0.02% of 320,000 active | Transient receptor potential cation channel subfamily V member 1 (Homo sapiens), Q8NER1; active means potentiation above 80%; inconclusive means 30% to 80%; inactive means below 30%; also: 0% is about no effect
Target sequence (Q8NER1 whole entry, looked up): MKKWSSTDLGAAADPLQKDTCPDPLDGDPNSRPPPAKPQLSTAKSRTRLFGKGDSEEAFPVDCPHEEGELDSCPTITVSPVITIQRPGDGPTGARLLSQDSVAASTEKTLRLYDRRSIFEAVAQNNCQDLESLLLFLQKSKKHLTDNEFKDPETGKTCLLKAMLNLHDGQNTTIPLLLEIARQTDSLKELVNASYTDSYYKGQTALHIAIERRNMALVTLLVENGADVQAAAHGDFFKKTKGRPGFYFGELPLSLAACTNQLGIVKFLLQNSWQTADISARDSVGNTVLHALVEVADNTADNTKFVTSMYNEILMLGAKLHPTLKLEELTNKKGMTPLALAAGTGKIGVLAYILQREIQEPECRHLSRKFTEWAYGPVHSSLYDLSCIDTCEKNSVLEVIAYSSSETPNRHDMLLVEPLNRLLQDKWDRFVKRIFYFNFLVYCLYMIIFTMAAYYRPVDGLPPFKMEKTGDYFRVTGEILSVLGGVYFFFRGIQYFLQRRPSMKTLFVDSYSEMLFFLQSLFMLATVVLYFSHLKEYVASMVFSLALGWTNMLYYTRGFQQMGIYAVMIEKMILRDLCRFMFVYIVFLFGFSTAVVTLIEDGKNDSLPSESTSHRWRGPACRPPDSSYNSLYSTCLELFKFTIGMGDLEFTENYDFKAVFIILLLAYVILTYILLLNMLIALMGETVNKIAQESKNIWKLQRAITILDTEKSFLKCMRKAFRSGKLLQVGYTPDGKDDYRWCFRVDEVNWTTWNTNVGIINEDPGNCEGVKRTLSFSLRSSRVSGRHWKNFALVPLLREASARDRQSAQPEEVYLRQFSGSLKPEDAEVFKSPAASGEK
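Cells expressing TRPV1 were dye-loaded with Fluo-8 and read kinetically: 10 s baseline, 3 min after compound (agonist portion), then 2 min after EC20 capsaicin (allosteric enhancer portion). Calcium-bound dye fluorescence at 480/520 nm.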
D2 potentiator: Beta-Arrestin HTS for Positive Allosteric Modulators of the Human D2 Dopamine Receptor: Potentiators; potentiation, % (test concentration not listed); D(2) dopamine receptor (Homo sapiens), P14416; AID 624464, 2012; DiscoveRx D2 beta-arrestin cells, luminescence, 90 min; 100% = 57 uM dopamine signal; 0.23% of 360,000 active; active = potentiation of 50% or more; inconclusive = 30% to 50%; inactive = 30% or less;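 also: compound concentration not given in the record; tested on top of an EC20 dose of dopamine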
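PathHunter beta-arrestin assay in DiscoveRx D2 cells. Compounds were added with an EC20 of dopamine (50 nM final) for 90 min at 37 deg C. Luminescence was read 1 h after detection reagent, with 57 uM dopamine as the EC100 control.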
Six1-Eya2 blk: qHTS Assay for Inhibitors of the Six1/Eya2 Interaction; AlphaScreen GST-Six1/His-Eya2 binding, biochemical; stronger effect = lower value; control for the full effect not named in the record; activity change, % (no concentration beside the values); 0.56% of 360,000 active; Homeobox protein SIX1 (Homo sapiens) + Protein phosphatase EYA2 (Homo sapiens), …; in the data active = activity change below about -65%; inconclusive = about -30% to -65%; inactive = above about -30%; also: % is scaled to controls: 0 for no effect and ±100 for the full control effect; compound concentration not given in the record
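Compounds are tested against tagged Six1 and Eya2 proteins bridged by glutathione donor and nickel acceptor beads; after a one-hour incubation at 37 °C without light, AlphaScreen emission is recorded.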
CtBP-E1A blk: qHTS Assay for Inhibitors of the CtBP/E1A Interaction; activity change, % (concentration not given with the values); CtBP / adenovirus E1A interaction (AlphaScreen); 0.49% of 340,000 active; AlphaScreen GST-E1A/His-CtBP binding, 1536-well; stronger effect = lower value; control for the full effect not named in the record; in the data active means activity change below about -65%; inconclusive means about -30% to -65%; inactive means above about -30%; also: % is scaled to controls: 0 for no effect and ±100 for the full control effect
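Steps: dispense buffer (Tris pH 8.0, NaCl 300 mM, TCEP 1 mM, BSA, Tween 20); add 5X protein mix (GST-E1A, His-CtBP, 125 nM each); pin 23 nL compound; 2 h at 37 °C, dark; add 5X beads (50 ug/mL); 1 h; read.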
PINK1 expr mod: A Quantitative High throughput Screen to Identify Chemical Modulators of PINK1 Expression. PINK1 immunofluorescence, high-content cytometry, 24 h. Potency, µM (titrated, usually from 76.6 µM), inactives show at the top dose activation (PINK1 increase), usual class: activators. 0.2% of 410,000 active. AID 624263, 2012; active = well fitted activation curve with a large enough effect; inconclusive = small, poorly fitted or top-dose-only effect; inactive = flat fitted curve, though single readings scatter; cell line not stated here;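 also: potency is read from the fitted curve at half-maximal effect; % of control where 0% means no effect; nearly all actives have a fitted effect of over 65% in size; a mitochondrial uncoupler was the plate control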
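PINK1 protein level read as immunofluorescence by microplate cytometer in a fixed, stained stable cell line after 24 h exposure to five compound concentrations, with CCCP as control.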
Sfp PPTase inh: qHTS Assay for Inhibitors of Bacillus subtilis Sfp phosphopantetheinyl transferase (PPTase); Biochemical Sfp PPTase activity, qHTS; 3.5% of 310,000 active; Potency, µM, for inactives: max response, negative = inhibition, usual class: inhibitors; active = well fitted inhibition curve with a large enough effect; inconclusive = small, poorly fitted or top-dose-only effect, or another doubt; inactive = no such curve, though single readings can be large or run the other way;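 also: the enzyme is Sfp with the accession as filed and its product quenches rhodamine fluorescence; potency is read from the fitted curve at half-maximal effect; 0% = enzyme reaction without inhibitor and -100% = no enzyme wells; top concentration of the series not given in the record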
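Buffer: 50 mM Hepes-Na pH 7.6, 10 mM MgCl2, 0.01% Nonidet P-40, 0.01% BSA. Enzyme 15 nM, pre-exposed to compound 15 min; substrates then added and fluorescence change tracked over 30 min.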
* = called active by the depositor; ? = inconclusive; nt = not tested or not shown; & = joins results of further samples; [ ] = dose if it differs, or a comment.

Below each compound: D2 agonist, TRPV1 potentiator, D2 potentiator, Six1-Eya2 blk, CtBP-E1A blk, PINK1 expr mod, Sfp PPTase inh
O=C(Cc1c(F)cccc1Cl)NNC(=O)c1ccco1
    -1.2, nt, -17, 7, 13, -0.2%, nt
O=C(Nc1ccc(-n2cccn2)cc1)C1CCN(Cc2ccccn2)CC1
    -4.3, -15, -14, -12, -1, 1.5%, 0%
O=C(/C=C/[C@H]1O[C@@H](n2ccc(=O)[nH]c2=O)[C@H](O)[C@@H]1O)N1CCN(CCc2ccccc2)CC1
    -3.2, nt, -7, 10, 0, 1.1%, nt
O=C(Oc1ccc(-c2csnn2)cc1)c1cccs1
    2.2, 5, 0, 2, -1, -2.0%, 15%
C[C@H](NC(=O)[C@@H]1Cc2ccccc2CN1C(=O)OC(C)(C)C)C(=O)NC1CCCC1
    9.8, -24, -11, 1, 10, 0.5%, 9%
CCOC(=O)COc1c(OC)cc(Cl)cc1C1Nc2ccccc2C(=O)N1c1cccc(C)c1 (stereo unspecified)
    -2.7, nt, -11, 1, -9, ?, 0%
C=CCN(c1ccccc1)S(=O)(=O)c1cccc(C(=O)Nc2ccncc2)c1
    8.0, 8, -35, 4, 3, 0.4%, nt
Cc1cccc(N2CCN(C(=O)CCC(=O)N3CC(C)Oc4ccccc43)CC2)c1C (stereo unspecified)
    1.5, -15, -5, -2, 0, 2.2%, -10%
S=C(NCCCN1CCOCC1)Nc1ccc(Cl)cc1
    -3.0, -4, -6, 0, 4, 0.7%, 15%
CC1(C(=O)NS(=O)(=O)c2cccc(F)c2)CCN1C(=O)c1cccc(F)c1 (stereo unspecified)
    -3.7, nt, -2, 4, -1, 0.2%, nt
O=C1c2ccccc2C(=O)N1CCC#Cc1ccc2cc(CCO)oc(=O)c2c1
    5.9, -5, -2, -4, -7, 3.8%, nt
CC1(C)C2CCC1(CS(=O)(=O)Nc1ccc(S(=O)(=O)NC3CCCCC3)cc1)C(=O)C2 (stereo unspecified)
    -0.6, -11, -12, -6, 11, 1.6%, 7%
COc1ccc(CC(N)c2csc(NC(=O)c3ccccc3)n2)cc1 (stereo unspecified)
    -2.8, nt, -4, -20, -17, 1.4%, nt
COc1ccc(OC)c(CNC(=O)CCC(=O)N2Cc3ccccc3Oc3ncccc32)c1
    -5.3, 4, -11, 0, 0, 1.0%&2.7%, 5%
O=C(Nc1ccc2c(c1)Cc1ccccc1-2)c1ccncc1
    0.6, -12, -7, 333, -21, 1.6%, -2%
Cc1ccc(Cc2c(C)nc3nc(SCC(=O)NCCN4CCOCC4)nn3c2C)cc1
    -3.8, 4, -4, -1, -21, -6.0%, -2%
O=C(Oc1ccc([N+](=O)[O-])cc1)c1cccnc1
    -3.4, -9, -9, ?, 5, -2.8%, 0%
Cc1cc(C)cc(-n2nnnc2SCC(=O)Nc2nc(-c3ccc(Cl)cc3)cs2)c1
    3.3, 0, -6, -4, -13, 8.6%[38.3 µM], 6%
CCC(=O)Nc1nnc(SCC(=O)N2c3ccccc3CC2C)s1 (stereo unspecified)
    0.6, 2, 1, 8, -14, 0.2%, 1%
CN(c1ccccc1C(=O)NCc1ccccn1)S(C)(=O)=O
    -1.7, -35, 6, -3, 4, 7.7%, -8%
CC(=O)c1cccc(NC(=O)c2ccc3c(c2)OCO3)c1
    4.3, -14, -7, 1, 0, -1.3%, 17%
CCc1ccc(CN2CCN(C(=O)c3cccc(OC)c3OC)CC2)cc1
    -0.4, 20, -31, 2, 4, -1.2%, -20%
Cc1ccc(OCC(=O)Nc2ccc(S(=O)(=O)Nc3cc(C)nc(C)n3)cc2)c(C)c1
    -0.1, 17, -68, 0, -2, -0.6%, nt
CN(CCOc1ccc(Cl)cc1)C(=O)c1cccc(S(=O)(=O)N2CCN(Cc3ccccc3)CC2)c1
    -4.0, nt, -5, -10, nt, 0.1%, nt
COc1ccc(NC2=CC(=O)CC(C)(C)C2)cc1OC
    0.3, nt, -4, 1, -2, nt, 0%
Cc1ccc2c(c1)-c1c(cnn1CC(=O)NC(C)CCc1ccco1)CO2 (stereo unspecified)
    -1.1, 2, -6, -5, -5, 0.8%, ?
CCOC(=O)C1=C(c2ccccc2)NC(SCC(=O)Nc2cccc(C)c2)=C(C#N)C1c1ccco1 (stereo unspecified)
    -0.8, 13, 2, -8, 2, -5.5%[38.3 µM], 20%
CC(C)Nc1ncnc2c1ncn2[C@H]1CN(CCN2CCOCC2)C[C@@H](CO)O1
    -4.3, nt, -7, 0, 4, -0.4%, nt
O=C1CSc2ccc(S(=O)(=O)N3CCN(c4ccccc4F)CC3)cc2N1
    4.0, -6, -10, -11, nt, -1.6%, -10%
CN(C(=O)COC(=O)c1ccc2c(=O)n3c(nc2c1)CCC3)c1ccccc1
    -1.3, -1, -16, -8, -17, -0.6%, 10%

Some of these compounds in order of the Sfp PPTase inh value, ascending.
SMILES	Sfp PPTase inh
CCc1ccc(CN2CCN(C(=O)c3cccc(OC)c3OC)CC2)cc1	-20%
Cc1ccc(Cc2c(C)nc3nc(SCC(=O)NCCN4CCOCC4)nn3c2C)cc1	-2%
CC(=O)c1cccc(NC(=O)c2ccc3c(c2)OCO3)c1	17%

Other entries follow:
Below each compound: D2 agonist, TRPV1 potentiator, D2 potentiator, Six1-Eya2 blk, CtBP-E1A blk, PINK1 expr mod, Sfp PPTase inh
CN(CC(=O)Nc1ccc(F)c(F)c1F)c1ncnc2sccc12
    -4.8, 5, -8, 8, 0, -2.3%, 17%
Cc1cccc(NC(=O)CNC(=O)CSc2ncccn2)c1C
    -4.1, nt, 13, 3, 5, 1.0%, nt
COc1ccccc1N1CCN(C(=O)c2cc3ccccc3[nH]2)CC1
    -4.6, -1, -4, -2, -10, 1.7%, 0%
CC(C)C[C@H]1CN([C@@H](Cc2ccc(O)cc2)CN2CCC[C@@H]2CN2C(=S)NC[C@@H]2Cc2ccccc2)C(=S)N1CC1CCCCCC1
    8.0, nt, -5, -9, -9, 1.1%, nt
COc1ccc(OC)c(-c2cc(C(=O)Nc3sc4c(c3C#N)CCC(C)C4)c3ccccc3n2)c1 (stereo unspecified)
    2.1, 9, -4, -1, -2, 11%[38.3 µM], -28%
CCn1c(CCC(=O)Nc2ccccc2F)nnc1SCC(=O)Nc1ccc(OC)cc1
    -2.5, 3, -22, 4, 7, -1.2%, 10%
O=C(COC(=O)COc1ccc(Cl)cc1)Nc1cccnc1Cl
    0.5, nt, -5, 0, 6, -0.5%, nt
COc1ccc(S(=O)(=O)NCc2ccc(C(=O)N3CCN(c4ccccn4)CC3)cc2)cc1
    1.3, 5, -11, -7, 3, -0.1%, -5%
COc1ccc(OC)c(CN2CCCCCC2)c1
    -0.8, -7, -15, 0, -5, 0.9%, 10%
Cc1ccc(CNC(=O)[C@@H](NC(=O)C2CCN(C(=O)[C@@H]3CCCN3)CC2)C(C)C)cc1
    -5.9, 1, -33, 5, 0, 0.7%, 9%
CCS(=O)(=O)N1CCN(C(=O)c2ccc(-c3ccccc3)cc2)CC1
    -1.9, -11, -6, 6, -5, -0.9%, -12%
O=C(CCC(=O)N1CCN(S(=O)(=O)c2ccccc2)CC1)c1ccc(Br)cc1
    5.0, nt, 9, 5, 4, -1.7%, nt
CN(C)C(=O)N1CCCC(C(=O)NCc2ccccc2)C1 (stereo unspecified)
    0.9, 5, -15, 4, 2, 0.1%[38.3 µM], 18%
CNC(=O)OCCSCCS(=O)(=O)c1ccc(Cl)cc1
    -5.7, -3, -4, 0, 0, 2.1%, 7%
Cc1ccc(Cn2cc(SCC(N)=O)c3ccccc32)cc1
    -3.3, 0, -4, -9, -10, 8.7%, -5%
CCN(CC)CCNC(=O)c1ccc(NC(=O)c2c(F)cccc2Cl)cc1
    -3.4, 10, -7, 13, -12, 1.0%, 6%
COC(=O)C1=C(C)N(C)C(=O)NC1c1ccc(O)c(Cl)c1 (stereo unspecified)
    1.6, -6, -12, 0, 9, -1.1%, 19%
COc1ccc(CCC(=O)N2CCN(S(=O)(=O)c3ccc(C)cc3)CC2)cc1
    -2.3, -2, -14, -8, 6, -1.0%, nt
O=C(C1CCCN(S(=O)(=O)c2ccc(Br)cc2)C1)N1CCOCC1 (stereo unspecified)
    -3.8, -35, -6, 5, -2, 0.4%, 0%
OCc1ccc(-c2cccc3nccn23)cc1
    -6.3, nt, -5, 0, 1, 0.3%, nt
COc1ccc2[nH]c3c(c2c1)CCN1C(=O)C(CC(=O)NCc2ccc(OC)c(OC)c2)C[C@H](C(=O)N(C(C)C)C(C)C)[C@@]31C (stereo partly specified)
    -1.4, nt, -4, -7, -12, 0.6%, nt
CCCCCc1c2c(cc(O)c1C(=O)O)OC(=O)c1c(cc(OC)cc1C(=O)CCCC)O2
    3.3, -1, 4, -7, 4, -1.2%&0.7%, 6%&6%
Cc1c(NC(=O)c2ccc(-c3cccc([N+](=O)[O-])c3)o2)c(=O)n(-c2ccccc2)n1C
    0.6, -1, -5, -7, -2, -1.1%, 3%
COc1ccc(CC(=O)Nc2cc(C)c3c(=O)oc4ccccc4c3n2)cc1
    -6.8, 1, 5, 6, -3, 3.4%, 6%
COc1ccccc1CNC(=O)C1(c2ccc(Cl)cc2)CC1
    -4.1, -3, -3, 2, -1, 1.7%, 19%
CC(=O)Oc1ccc2nc(-c3cccs3)oc(=O)c2c1
    -2.3, -2, -24, -4, -23, -2.7%, -5%
CCCCN1C(=O)C(C(=O)OCc2ccccc2)CC2=C1CCCC2=O (stereo unspecified)
    1.4, nt, -6, 1, 1, -0.9%, nt
Cc1ccc(CNC(=O)C(=O)NCC2OCCN2S(=O)(=O)c2ccc(C)cc2)cc1 (stereo unspecified)
    0.0, -7, -18, 7, 0, -0.5%, -2%
O=C(O)CCN1C(=O)NC2(CCCC2)C1=O
    -2.2, -8, 0, 6, 1, 0.9%, 15%
Cn1c(C(=O)NC2CC2)cc(=O)n(C)c1=O
    -1.1, -6, -11, -2, 6, 0.2%, 24%
OCCCNC(=S)Nc1ccc(Oc2ccccc2)cc1
    -4.0, -4, -11, -7, 5, -0.3%, -23%
COc1ccc(NC(=O)CN(C)C(=O)c2cccc(S(=O)(=O)N3CCN(c4ccc(F)cc4)CC3)c2)cc1
    6.1, nt, 2, -4, -16, -0.1%, nt
